From PubChem BioAssay
PINK1 expr mod: PINK1 expression modulation; PINK1 immunofluorescence, high-content cytometry, 24 h; Potency, µM (doses to about 76.6 µM), for inactives: top-dose activation (PINK1 increase), usual class: activators; 410,000 tested, 0.2% active; active = well fitted activation curve with a large enough effect; inconclusive = small, poorly fitted or top-dose-only effect; inactive = flat fitted curve, though single readings scatter; cell line not stated here;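 further: potency means the concentration at half of the fitted maximal effect; % of control where 0% means no effect; nearly all actives have a fitted effect of over 65% in size; a mitochondrial uncoupler was the plate control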
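Measures PINK1 amount and localization on or inside mitochondria by immunofluorescence. Stable cells get compounds at 5 concentrations for 24 hours before fixation and staining; CCCP controls included.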
Menin-MLL FL inh: displaces fluorescein MLL peptide from human menin | Fluorescence polarization, fluorescein-MLL peptide displacement from menin | FP activity change, % at 61.4 µM | 290,000 tested, under 10 active; inconclusive = falling polarisation curve, or a change in total fluorescence; inactive = total fluorescence flat and polarisation flat or rising; no compound was filed as active; the % refers to the polarisation; negative = inhibition;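 further: % of control where 0% means no effect; inhibitors lower the polarisation; unlabelled MLL peptide was the positive control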
gsp antagonist: antagonizes gsp, the McCune-Albright syndrome mutation; gsp-mutant cells, cAMP HTRF, 30 min; control for the full effect not named in the record; Potency, µM (top dose mostly 76.9 µM), without a hit: at the top dose activity change, negative = inhibition, hits mostly inhibitors; 340,000 tested, 0.4% active; active = falling curve of any shape with a large fitted effect; inconclusive = falling curve, mostly with a smaller effect; inactive = flat or rising curve; cell line not stated here;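 further: intracellular cAMP measured with PDE inhibitor Ro 20-1724 present during compound exposure; potency means the concentration at half of the fitted maximal effect; on the % scale 0 is the no-effect control and ±100 the full control effect; nearly all actives have a fitted effect of over 65% in size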
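HTRF cAMP measurement after 30 min RT detection following 30 min, 37C compound treatment alongside […] (added as 300 uM solution) in G418-selected cells seeded at 2000/well and grown 16–24 h.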
D2 ag: activates the human D2 dopamine receptor; P14416; DiscoveRx PathHunter D2 beta-arrestin, luminescence, 90 min; 100% = 57 uM dopamine signal; activation, % (concentration not given with the values); 360,000 tested, 0.084% active; AID 624465; in the data active = activation above about 40%; inconclusive = about 15% to 40%; inactive = below about 15%; further: compound concentration not given in the record; the text of the record calls up to 30% inactive
Target sequence (P14416 whole entry, looked up): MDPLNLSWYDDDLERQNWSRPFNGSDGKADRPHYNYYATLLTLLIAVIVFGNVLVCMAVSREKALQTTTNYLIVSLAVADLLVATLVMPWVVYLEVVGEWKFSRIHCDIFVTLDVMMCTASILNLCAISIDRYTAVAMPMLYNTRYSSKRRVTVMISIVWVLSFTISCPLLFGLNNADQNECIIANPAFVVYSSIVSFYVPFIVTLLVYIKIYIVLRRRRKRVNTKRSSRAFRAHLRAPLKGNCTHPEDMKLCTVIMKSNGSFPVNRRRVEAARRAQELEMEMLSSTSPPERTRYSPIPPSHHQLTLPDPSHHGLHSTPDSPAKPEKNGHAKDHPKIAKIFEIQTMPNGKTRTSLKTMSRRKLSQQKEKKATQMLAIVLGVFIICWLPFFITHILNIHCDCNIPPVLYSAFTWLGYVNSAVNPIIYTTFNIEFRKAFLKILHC
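Agonist mode: compounds alone added to overnight-plated D2 PathHunter cells for 90 min at 37 C, with 57 uM final dopamine (EC100) defining full response. Beta-arrestin recruitment detected by chemiluminescent reagent, read after 1 h at ambient temperature.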
Sfp PPTase inh: inhibitors of Bacillus subtilis Sfp phosphopantetheinyl transferase; 310,000 tested, 3.5% active; Potency, µM, inactives show max response, negative = inhibition, hits mostly inhibitors; Q9F4F7; AID 1490; Biochemical Sfp PPTase activity, qHTS; active means well fitted inhibition curve with a large enough effect; inconclusive means small, poorly fitted or top-dose-only effect, or another doubt; inactive means no such curve, though single readings can be large or run the other way;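 further: the enzyme is Sfp with the accession as filed and its product quenches rhodamine fluorescence; potency means the concentration at half of the fitted maximal effect; 0% = enzyme reaction without inhibitor and -100% = no enzyme wells; top concentration of the series not given in the record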
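Fluorescence-quenching assay with 15 nM Sfp, 5 uM rhodamine-CoA and 12.5 uM BHQ-2-labelled ybbR peptide in pH 7.6 Hepes/MgCl2 buffer. Enzyme was pre-incubated with compound for 15 min at room temperature. Rate was taken from the 30-min fluorescence change (525/598 nm).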
ClpP mod: qHTS Assay for Activators of ClpP; 340,000 tested, 1.9% active; purified B. subtilis ClpP, FRET peptide cleavage, 20 min; Potency, µM (doses to about 57.5 µM), without a hit: top-dose activity change, negative = active; AID 651965, 2013; active = well fitted falling curve with a large enough effect; inconclusive = small, poorly fitted or top-dose-only effect; inactive = no such curve, though single readings can be large or run the other way; further: potency means the concentration at half of the fitted maximal effect; the source files actives as falling curves though it sought activators and does not explain the sign; nearly all actives have a fitted effect of over 65% in size; many hits overshoot -100%
Target sequence (P80244 whole entry, looked up): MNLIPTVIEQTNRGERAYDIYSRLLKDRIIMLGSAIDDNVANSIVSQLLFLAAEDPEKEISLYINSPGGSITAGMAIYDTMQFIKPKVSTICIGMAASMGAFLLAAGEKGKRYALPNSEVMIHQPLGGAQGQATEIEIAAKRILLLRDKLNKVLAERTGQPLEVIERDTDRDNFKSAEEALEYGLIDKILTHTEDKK
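Buffer: 100 mM Tris/HCl pH8, 100 mM KCl, 0.05% low protease BSA, 2.5% glycerol, 0.01% Tween-20. ClpP 10 microg/mL final; 20 min RT; delta FRET normalized to ADEP and DMSO controls.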
gsp agonist: agonists of gsp mutant (McCune-Albright syndrome) | gsp mutant cells, cAMP HTRF, 30 min; control for the full effect not named in the record | Potency, µM (top dose mostly 76.9 µM), for inactives: at the top dose activation (cAMP increase), hits mostly activators | 340,000 tested, 0.13% active; active = well fitted activation curve with a large enough effect; inconclusive = small, poorly fitted or top-dose-only effect, or another doubt; inactive = no such curve, though single readings can be large or run the other way; cell line not stated here;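 further: phosphodiesterase inhibitor Ro 20-1724 added with compounds to block cAMP breakdown; potency means the concentration at half of the fitted maximal effect; nearly all actives have a fitted effect of over 60% in size; about a fifth of the inactives were tested at one dose only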
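Cells in DMEM/10% FBS with G418 were pretreated with compounds in DMSO plus […] (300 uM stock) for 30 min at 37C. cAMP was measured by HTRF (cAMP-d2 plus anti-cAMP antibody-K) after 30 min at room temperature.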
Starred values were filed as active, the others as inactive; u = inconclusive; x = not tested or not shown; & = joins results of further samples; [ ] = remark or other dose.

SMILES | PINK1 expr mod | Menin-MLL FL inh | gsp antagonist | D2 ag | Sfp PPTase inh | ClpP mod | gsp agonist
Cc1c(NC(=O)c2ccc(N(C)S(=O)(=O)c3ccccc3)cc2)c(=O)n(-c2ccccc2)n1C | 0.4% | 1.3 | 0% | 0.9 | 9% | x | 2%[15.4 µM]
O=C(NC1CC1)c1cccc(Oc2ccccc2)c1 | 0.6% | 0.9 | 0% | 5.7 | 8% | -2.9% | -6%[15.4 µM]
O=C(CN1C(=O)NC2(CCCCC2)C1=O)Nc1cccc2ncccc12 | 0.7% | x | 9% | -1.0 | x | -4.7% | -12%
Cc1c(CNCCc2ccccc2)c(C(=O)O)c(C)n1-c1ccccc1 | -2.5% | 15 | -5% | -2.9 | -5% | -2.3% | 1%
CC(=O)Nc1nc2ccccc2n1Cc1ccccc1 | 2.3%[38.3 µM] | 0.6 | 12% | -1.2 | 10% | 1.1% | 3%
Cc1ccc(NC(=O)CC2SC3=NCCCN3C2=O)c(C)c1 (stereo unspecified) | 6.5% | u | 9% | -3.5 | u | 0.7% | -32%[inhibitor]
CC1(C)Cc2nc3sc(C(=O)NCCO)c(N)c3cc2CO1 | -0.4% | 3.2 | -1% | -0.9 | u | 1.8% | -3%
Cc1cc(OC(C)C(=O)NCCN2CCOCC2)c2c(C)c(C)c(=O)oc2c1 (stereo unspecified) | 1.1% | -1.1 | 7% | 1.5 | 12% | 4.4% | -2%
C/C=C/Cn1c(SCc2ccc(Cl)cc2)nc2c1c(=O)[nH]c(=O)n2C | 2.4% | -0.7 | 0% | -1.0 | 1% | 0.8% | 26%
COc1cccc(C2/C(=C(\O)c3ccc4c(c3)OCO4)C(=O)C(=O)N2CCN(C)C)c1OC (stereo unspecified) | 3.1% | 0.3 | 17% | -3.5 | -6% | -1.9% | u
COc1ccc(-n2nc(C(=O)NCC(=O)NC(C)C)c3ccccc3c2=O)cc1 | 1.5% | 10.0 | 8% | -3.3 | 11% | x | u
CC(=O)CSc1nc2nccnc2[nH]1 | -0.1% | x | x | -5.0 | x | 3.5% | u
COc1ccc(NS(=O)(=O)c2ccc(-c3coc(C)n3)cc2)cc1OC | -1.1% | x | -19% | 0.2 | -3% | -0.9% | -37%[inhibitor]
O=C(COc1ccccc1[N+](=O)[O-])NCCC1=CCCCC1 | -1.0% | 2.3 | 6% | -5.3 | -5% | x | u
CCOc1ccc(C(=O)NCC(=O)OCC(=O)N2CCCCC2)cc1 | -0.5% | -0.4 | -16% | -4.1 | 19% | 0.4% | -4%
CC1(C(=O)Nc2cccc(C#N)c2)CCN1C(=O)Cc1ccc(-c2ccccc2)cc1 (stereo unspecified) | -0.6% | x | x | 3.0 | x | -0.7% | x
CNC(=S)Nc1cccc(S(=O)(=O)NC2=NCCC2)c1 | -0.5% | 3.2 | 9% | -5.4 | -22% | x | -1%[15.4 µM]
O=C(c1cccc(C(=O)N2CCN(c3ccccc3)CC2)c1)N1CCN(c2ccccc2)CC1 | 5.1%[38.3 µM] | 2.4 | -18% | 2.3 | 11% | 1.0% | -5%
CCCCN(C(=O)c1ccccc1OCc1ccc(F)cc1)c1c(N)n(CCC)c(=O)[nH]c1=O | 3.6% | x | 8% | -4.7 | 6% | -0.9% | -23%
COc1ccc(NC(=O)CN(C)C(=O)c2cn(-c3ccccc3)nc2-c2cccnc2)cc1 | 0.0% | x | -4% | -5.1 | x | 0.7% | 9%[15.4 µM]
NC(=O)c1ccc(NC(=O)COC(=O)CC23CC4CC(CC(Br)(C4)C2)C3)cc1 | -0.2% | x | 2% | -1.7 | x | -3.8% | -17%[15.4 µM]
Cn1cccc1C(=O)N1CCC2(CCCN(C(=O)Nc3cccc(F)c3)C2)CC1 | 1.5% | 0.0 | x | x | -17% | x | x
COc1ccccc1-c1oc2ccccc2c1C#CCCCCO | 2.0% | x | -11% | -2.7 | x | 4.2% | u
O=C(Nc1ccc(Cn2cccn2)cc1)c1ccc(COc2ccc(Br)cc2)cc1 | -1.0% | 2.2 | 0% | 0.6 | 20% | -4.9% | u
CCOC(=O)C1CCN(c2cc3c(cc2NC(=O)c2ccccc2Cl)n(C)c(=O)n3C)CC1 | 1.8%&3.7% | x | u | -0.4 | 0% | -1.0%&-14% | 7%
CSc1ccccc1OCc1cc(C(=O)NC2CCOC(C)(C)C2)no1 (stereo unspecified) | 2.5% | 1.9 | 5% | -4.4 | 17% | -4.9% | -81%[inhibitor]
CC1Oc2ccc(C#N)cc2N(Cc2ccccc2OC(F)(F)F)C1=O (stereo unspecified) | 4.4% | x | x | 4.6 | x | 2.7% | x
C1=CC2CC1CC2CN1CCN(c2ccccc2)CC1 (stereo unspecified) | 3.7%[38.3 µM] | -0.2 | 6% | u | -10% | 0.7% | -5%
C#CCOCCOCCOCCNc1nc(N2CCN(C(=O)[C@H](CCCCN)n3cc(CN)nn3)CC2)nc(N2CCN(C(=O)[C@H](CCC(=O)O)n3cc([C@@H](N)[C@H](C)CC)nn3)CC2)n1 | -0.2% | x | -6% | -2.2 | x | -4.6% | x
CCOc1ccc(-c2nc(CSCC(=O)NCC3CCCO3)c(C)o2)cc1 (stereo unspecified) | -0.1% | 0.4 | -4% | 0.8 | 8% | 3.3% | 20%
COc1ccc(-c2csc(C(C)(NC(C)=O)c3ccccc3)n2)cc1 (stereo unspecified) | -0.3% | x | x | 6.0 | x | 1.7% | x
COc1ccc(NC(=O)C2CCCO2)cc1OC (stereo unspecified) | 14%[38.3 µM] | 3.7 | 7% | -0.5 | 4% | -0.2% | 6%
Cc1cc2nc(-c3ccc(SCC(=O)N4CCN(C(=O)c5ccco5)CC4)nc3)[nH]c2cc1C | u | 3.2 | -12% | 1.9 | -5% | u | u
CCOC(=O)c1ccn(S(=O)(=O)c2ccc(C)cc2)c1-c1ccccc1 | 2.1% | x | x | -3.7 | x | -0.3% | x
O=C(C1CCCN1S(=O)(=O)c1cccc2cccnc12)N1CCn2c1nc1ccccc12 (stereo unspecified) | 1.1% | 0.5 | -2% | -6.8 | -7% | 0.4% | -8%
Cc1ccc(/C=N/NC(=O)c2cc(-c3ccccc3)nc3ccccc23)o1 | 1.6% | x | 6% | -2.5 | 50µM* | -6.8% | 22%
Cc1cnc(=O)[nH]c1SCc1ccc([N+](=O)[O-])cc1 | -0.9% | -2.0 | -8% | -0.5 | 1% | 1.5% | 0%
CC(=O)c1cccc(NC(=O)C2CCN(S(=O)(=O)c3ccc(C)cc3)CC2)c1 | -2.1% | 0.8 | -6% | -1.6 | 10% | -3.9% | -20%
COCCN(C(=O)COC(=O)/C=C/c1cccc(OC)c1)c1c(N)n(CC(C)C)c(=O)[nH]c1=O | -1.1% | x | -1% | 1.1 | x | 32µM* | -49%[inhibitor]
Cc1ccc2nc3c(cc2c1)c(NC(=O)C(C)(C)C)nn3CC(C)C | 0.7% | -6.1 | -18% | 4.5 | 14% | -18% | u
CCNS(=O)(=O)c1ccc(CCC(=O)Nc2ccc(C(=O)OC)cc2)cc1 | -1.4% | -2.6 | -5% | 6.2 | 3% | x | u
CCOC(=O)c1c(NC(=O)OC)sc2c1CCC2 | 1.8% | 1.1 | -16% | -1.6 | 32µM* | -7.9% | -26%
Cc1ccc(N2CCCCn3c2nc2c3c(=O)[nH]c(=O)n2C)cc1 | -0.2% | 15 | 4% | -2.4 | -4% | 0.7% | -12%
COc1ccccc1-c1cc(C(F)(F)F)nc(N2CCN(c3ccccc3)CC2)n1 | 15% | 0.5 | 2% | -0.4 | 15% | 1.9% | -21%
Cc1ccc(S(=O)(=O)NC(C(=O)N2CCOCCOCCOCC2)c2ccccc2)cc1 (stereo unspecified) | -1.2% | 2.2 | 3% | 6.6 | 14% | x | 8%[15.4 µM]

Reformatted: results already given.
SMILES	PINK1 expr mod	Menin-MLL FL inh	gsp antagonist	D2 ag	Sfp PPTase inh	ClpP mod	gsp agonist
Cc1cc2nc(-c3ccc(SCC(=O)N4CCN(C(=O)c5ccco5)CC4)nc3)[nH]c2cc1C	u	3.2	-12%	1.9	-5%	u	u
CCNS(=O)(=O)c1ccc(CCC(=O)Nc2ccc(C(=O)OC)cc2)cc1	-1.4%	-2.6	-5%	6.2	3%	x	u

The results go on.
SMILES | PINK1 expr mod | Menin-MLL FL inh | gsp antagonist | D2 ag | Sfp PPTase inh | ClpP mod | gsp agonist
CCCNC(=S)N1CCN(C)CC1 | 1.3% | 1.9 | 12% | -1.1 | -23% | 7.1µM* | -18%
COc1ccc(OC)c(S(=O)(=O)NC(=O)C2(C)CCN2C(=O)Cc2ccccc2Cl)c1 (stereo unspecified) | 4.3% | x | x | -1.6 | x | -0.5% | x
COCCNC(=S)Nc1ccccc1[N+](=O)[O-] | 1.3% | 0.2 | 6% | 0.5 | -15% | x | 21%
COc1ccc(Cl)cc1N(CC(=O)N(C)C)S(=O)(=O)c1ccc(C)c([N+](=O)[O-])c1 | 1.3% | -0.6 | -7% | 0.2 | 11% | 0.0% | -30%
COc1ccc(CNC(=O)COC(=O)c2ccc(OCc3c(C)noc3C)cc2)cc1OC | 1.1% | 3.3 | -22% | 0.2 | -2% | -2.5% | 13%
CCN(CC)S(=O)(=O)c1ccc(N2CCOCC2)c(NC(=S)NC(=O)c2ccco2)c1 | 0.1% | 3.2 | -22% | -4.9 | 20µM* | x | -27%[15.4 µM]
COc1ccc(-n2nnnc2SC(C)C(=O)NC2CCCC2)cc1 (stereo unspecified) | 4.4% | x | -7% | -1.6 | x | 0.8% | 17%
O=C(Nc1ccccc1N1CCCC1)c1cccnc1Cl | 1.1% | 7.3 | -12% | -2.6 | 13% | -1.7% | -27%
Cn1c(=NC(=O)c2ccccc2[N+](=O)[O-])sc2cc(S(C)(=O)=O)ccc21 | 9.7% | 1.9 | 5% | 7.0 | -1% | 0.4% | 0%
CN(C)/N=C/C=C1\CCC/C(=C\c2ccc(F)c(F)c2)C1=O | -1.0% | u | u | -3.9 | 8.9µM* | x | 7%[15.4 µM]
CCN(CC)CC(O)CNc1ccnc2c(Cl)ccc(Cl)c12 (stereo unspecified) | 1.1% | x | 12% | -2.0 | x | x | -8%
